KCNQ2 enhance = potentiators of rat KCNQ2 potassium channel; CHO-K1 KCNQ2, FluxOR thallium flux fluorescence; stronger effect = higher value; Potassium voltage-gated channel subfamily KQT member 2 (Rattus norvegicus), O88943; 310,000 tested, 0.54% active; B-score at 10 µM;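 active means fluorescence ratio B-score at least 3 SD of library B-scores, with initial fluorescence B-score within 3 SD, cut at about 5.3 in these data; same plate scores as AID 2156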;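 further: B-score of peak minus minimum over baseline fluorescence ratio after K+ and Tl+ stimulus; positive B-score means potentiation of KCNQ2 with more thallium influx and brighter signal; only the inactives scoring about 0 or higher are listed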
Target sequence (O88943 whole entry, looked up): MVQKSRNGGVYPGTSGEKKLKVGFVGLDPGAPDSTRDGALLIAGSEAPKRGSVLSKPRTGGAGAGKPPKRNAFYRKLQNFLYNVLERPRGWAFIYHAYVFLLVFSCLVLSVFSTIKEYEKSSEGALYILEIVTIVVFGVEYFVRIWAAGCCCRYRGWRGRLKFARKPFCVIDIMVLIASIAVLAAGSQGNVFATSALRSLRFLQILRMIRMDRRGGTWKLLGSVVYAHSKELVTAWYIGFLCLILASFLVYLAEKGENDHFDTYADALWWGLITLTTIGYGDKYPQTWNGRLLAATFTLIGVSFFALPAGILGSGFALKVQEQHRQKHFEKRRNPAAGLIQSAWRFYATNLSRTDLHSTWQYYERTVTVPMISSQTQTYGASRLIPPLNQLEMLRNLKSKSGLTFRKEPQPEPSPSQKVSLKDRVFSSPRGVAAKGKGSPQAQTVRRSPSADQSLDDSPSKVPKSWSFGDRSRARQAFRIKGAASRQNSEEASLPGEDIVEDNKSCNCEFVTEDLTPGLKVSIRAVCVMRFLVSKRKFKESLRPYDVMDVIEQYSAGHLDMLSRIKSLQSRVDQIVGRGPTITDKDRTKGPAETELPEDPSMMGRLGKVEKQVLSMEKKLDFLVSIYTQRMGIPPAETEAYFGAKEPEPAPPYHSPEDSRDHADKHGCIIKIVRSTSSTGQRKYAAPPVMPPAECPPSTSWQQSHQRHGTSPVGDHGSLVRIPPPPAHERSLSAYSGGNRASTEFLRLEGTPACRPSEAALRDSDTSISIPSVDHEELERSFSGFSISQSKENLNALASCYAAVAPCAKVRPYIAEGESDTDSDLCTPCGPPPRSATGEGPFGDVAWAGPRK
KCNQ2 enhance baseline = also measured in KCNQ2 enhance; calls as there; B-score; compound at 10 µM; measured here: initial fluorescence intensity artifact check;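 brightness before thallium and not channel activity; 0 = typical well and far values either way flag optical interference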
* marks the source's active call; other numbers are inactive results.

The first 6 entries, ahead of the listing:
molecule,KCNQ2 enhance baseline,KCNQ2 enhance
Cc1ccc(COc2ccccc2-c2cc(C(=O)N/N=C/c3cccnc3)[nH]n2)cc1,-1.6,0.08
CC(C)C(=O)O/N=C(\N)c1ccc(Oc2ccc(Cl)cc2)c([N+](=O)[O-])c1,0.76,0.72
CCOC(=O)Cc1[nH]nc2c1C(Cc1ccccc1)C(C#N)=C(N)O2 (configuration not stated),0.03,0.23
CCOC(=O)c1cc[nH]c1CC(=O)NC,-0.99,0.25
CCCCC(=O)OCc1nc2ccccc2s1,0,0.63
CSc1nc(N)n2nc(-c3ccc(Cl)cc3)cc2n1,2.5,0.46

Results, previewed entries included:
molecule,KCNQ2 enhance baseline,KCNQ2 enhance
Cc1ccc(COc2ccccc2-c2cc(C(=O)N/N=C/c3cccnc3)[nH]n2)cc1,-1.6,0.08
CC(C)C(=O)O/N=C(\N)c1ccc(Oc2ccc(Cl)cc2)c([N+](=O)[O-])c1,0.76,0.72
CCOC(=O)Cc1[nH]nc2c1C(Cc1ccccc1)C(C#N)=C(N)O2 (configuration not stated),0.03,0.23
CCOC(=O)c1cc[nH]c1CC(=O)NC,-0.99,0.25
CCCCC(=O)OCc1nc2ccccc2s1,0,0.63
CSc1nc(N)n2nc(-c3ccc(Cl)cc3)cc2n1,2.5,0.46
O=C(N[C@@H](Cc1ccccc1)C(=O)O)c1ccc(C(F)(F)F)cc1,-0.89,0.82
Cc1cc(F)c(F)c(C(=O)N2CCC(C)CC2)c1Cl,-0.22,1.1
Cc1cccc2cc(/C=N/NC(=O)c3ccncc3)c(Cl)nc12,-0.06,1.7
Cc1nc(CN(C)C(=O)C2CCC(=O)N(CCc3cccc(F)c3)C2)cs1 (configuration not stated),0.01,0.08
CN(C)S(=O)(=O)Nc1ccc2c(c1)OCO2,-0.59,0.35
CCCCCN(C(=O)CCC(=O)OC(C)C(=O)c1ccc(Cl)cc1)c1c(N)n(CCCC)c(=O)[nH]c1=O (configuration not stated),0.43,0.33
COC(=O)C1CSC(C(=O)OC)N1C(=O)Nc1ccccc1 (configuration not stated),0.34,1
CC(/C=N/NC(=O)Cc1cccs1)=C\c1ccccc1,-0.84,2.3
COc1ccc(CCn2c(C)c(C(C)=O)c(C(C)=O)c2C)cc1OC,2.1,0.28
Cc1ccc(F)cc1NC(=O)CCNC(=O)c1ccc([N+](=O)[O-])cc1,-0.55,1.3
Cc1nc(NCC2CCCO2)c2nnn(Cc3c(F)cccc3Cl)c2n1 (configuration not stated),-1,0.06
O=C(CC12CC3CC(CC(C3)C1)C2)NCc1ccncc1,0.61,0.1
CCCCNc1nc(N)nc(-c2cc(Cl)ccc2O)n1,-0.93,2.4
O=C(Nc1cc(Cl)c(Cl)cc1Cl)c1cccnc1,0.88,0.34
O=C(CSc1nnnn1-c1ccccc1)CC(=O)Nc1ccc(Cl)cc1,4.5,3.6
O=C(c1c(O)c2ccccc2oc1=O)C1CCC1,-2.3,0.64
O=C(O)CCCNC(=O)c1cccc(C(=O)NCCCC(=O)O)n1,-1.1,0.05
CN(C(=O)COC(=O)c1cc(S(=O)(=O)N2CCOCC2)c(Cl)cc1Cl)C1CCS(=O)(=O)C1 (configuration not stated),-1.4,0.85
CN1C(N)=NC(=O)/C1=C/c1ccc(OC(F)(F)F)cc1,0.79,1.1
O=C(COc1ccc2ccc(=O)oc2c1)N1CCN(C(=O)C2COc3ccccc3O2)CC1 (configuration not stated),0.98,0.02
Cc1nn(C(C)(C)C)c(OC(=O)c2ccc3c(c2)OCO3)c1S(=O)(=O)c1ccccc1,0.14,0.02
O=C(Nc1cccc(-c2nc3ccccc3s2)c1)c1cc(=O)c2ccccc2o1,0,1.2
COc1ccc2c(c1)O[C@@H](c1cccc(C(F)(F)F)c1)[C@H](O)C2=O,0,4.9
Cc1cc2cc(CNC(=O)c3ccc(S(=O)(=O)N4CCOCC4)cc3)ccc2[nH]1,4.3,0.29
Cc1ccc(C(=O)NCC(=O)O)cc1S(=O)(=O)N1CCCCC1,-0.15,0.56
COc1ccc(C(O)P(=O)(OC2CCCCC2)c2ccc(N(C)C)cc2)cc1OC (configuration not stated),0.13,0.63
COc1ccc(OC)c(S(=O)(=O)N/N=C(/C)c2ccc3c(c2)OCO3)c1,0.4,0.01
COC(CNC(=O)Cn1nc(Cc2ccncc2)c2ccccc2c1=O)OC,-0.04,0.38
Cc1nc(CCNC(=O)c2cccs2)cs1,0.22,0.58
Cc1ncc(CN2CCC(N3CCC(C(=O)N4CCCC4)CC3)CC2)s1,-0.68,1.5
O=C(Nc1cccc2ccccc12)c1ccc(OC(=S)N2CCOCC2)cc1,-0.52,0.88
O=C(OC1CCOC1=O)c1ccc(CO)cc1 (configuration not stated),0.84,0.06
O=C(Nc1ccc(N2CCOCC2)c(Cl)c1)c1ncn[nH]1,-0.02,1.1
C=CCN1C(=O)c2ccc(C(=O)N(CCC)CC(=O)Nc3ccccc3C)cc2C1=O,-1.4,0.77
CCOC(=O)c1c(C)[nH]c(C(=O)OCc2csc(CC(=O)Nc3ccccc3C)n2)c1C,1.2,0.17
CC1(NC(=O)C2CCCCC2)CCS(=O)(=O)C1 (configuration not stated),-0.47,0.93
Cc1ccc2oc(-c3ccc(C)c(NC(=S)NC(=O)c4cccs4)c3)nc2c1,-1.5,0.15
O=C(c1cc(-c2ccco2)on1)N1CCN(c2ccccc2)CC1,0.32,0.12
COc1ccc(CCc2nnc(CCC(=O)NCc3ccc4ncccc4c3)o2)cc1,-0.88,0.37
O=C(NC(=S)Nc1cc([N+](=O)[O-])ccc1Cl)c1ccccc1,-0.76,1.6
O=C1NC(=S)N/C1=C\c1ccccc1OCc1ccc(C(=O)O)cc1,-0.21,0.59
CCN(CC)C(=O)c1ccc(-c2nnc(OC)c3ccccc23)cc1,0.82,0.49
COc1ccc(-c2csc(NC(=O)c3cccc(N4C(=O)CCC4=O)c3)n2)cc1C,-1.2,1.6
COc1c(C)cc(C(=O)C2CCCN(C(=O)Cn3nc(C)nc3C)C2)cc1C (configuration not stated),-1.6,0.36
CCC(=NCCc1ccc(OC)c(OC)c1)C1=C(O)CC(C)(C)CC1=O,0.38,0.76
CCCCN1CCc2c(c3ccccc3n2Cc2ccccc2)C1,-0.91,2
Cc1sc(NC(=O)c2cccs2)c(C(N)=O)c1C,-0.35,0.6
NC(=O)N/N=C/c1ccc(-c2cccc(C(F)(F)F)c2)o1,-1.4,0.52
O=C1CCCCCN1Cc1ccccc1,-0.36,0.7
CCn1c(SCC(=O)Nc2ccc(OC)cc2)nnc1-c1ccco1,2.8,0.14
CCN(C1CCCCC1)S(=O)(=O)CCNC(=O)c1ccccc1,1.1,0.2
NCCc1nc(-c2ccccc2)cs1,1,1.3
CCn1nnnc1SCC(=O)c1ccc(C)cc1,-0.08,1.1
COc1ccc(C(=O)Cn2cnc3ccccc3c2=O)cc1OC,-1.3,0.49

(cont.)
molecule,KCNQ2 enhance baseline,KCNQ2 enhance
Cc1cc(=O)[nH]c(N/N=C/c2ccc(Br)s2)n1,0.11,0.41
Cc1ccc(NC(=O)CNc2ccc(Cl)cc2F)cc1,-1.2,3.9
CCc1ccc(N(C(=O)C(F)(F)F)C(C(=O)NC2CCCCC2)c2ccncc2)cc1 (configuration not stated),1.5,0.07
Clc1ccc2nc(-c3ccccn3)c(Nc3ccc4c(c3)OCO4)n2c1,-0.25,0.47
O=C(O)c1ccc(N/N=C/c2cccc3cccnc23)cc1,2.5,0.09
COCCCNC(=O)C(=O)C1C(=O)Nc2ccccc21 (configuration not stated),-0.1,0.5
CC(=O)Nc1ccc(NC(=O)C(C)OC(=O)/C=C/c2cnc3ccccc3n2)cc1 (configuration not stated),-0.35,1.2
COc1ccc(OCC(=O)NC(CC(=O)O)c2ccc(OC)c(OC)c2)cc1 (configuration not stated),-0.87,0.68
Cc1cccc(N2C(=O)CC(Cn3nc(C)cc3C)C2=O)c1 (configuration not stated),1.2,0.32
COc1cc2c(cc1NC(=O)Nc1cccc(C)c1)oc1ccccc12,-0.61,0.26
NC(=O)c1ccc(-n2nnnc2SCc2ccc(F)cc2)cc1,0.79,0.95
CC(C)(C)C(=O)C(Cc1ccccc1Cl)n1cncn1 (configuration not stated),-0.13,0.81
COC(=O)[C@@H]1CCCN1Cc1c(C(=O)N2CCOCC2)nc2c(C)cccn12,-0.25,0.54
CCOc1cccc(C2/C(=C(/O)c3ccc4c(c3)CC(C)O4)C(=O)C(=O)N2CCN2CCOCC2)c1 (configuration not stated),1.9,0.03
CCn1c(=O)cc(OCC(=O)N2CCCCCC2)c2ccccc21,-2.1,0.9
COC(=O)c1ccc(C)c(NC(=O)c2ccc(Cn3cc([N+](=O)[O-])cn3)o2)c1,-0.24,0.75
O=C(Oc1ccc(-c2nnco2)cc1)C1CCN(C(=O)c2ccc(F)cc2)CC1,0.06,0.26
CCn1c(-c2ccc(C(C)(C)C)cc2)n[nH]c1=S,0.35,3
COc1ccc(/C=C\C(=O)NCc2ccc3c(c2)cc(C)n3C)cc1OC,0.99,2.5
CC(C)C[C@H](NC(=O)OC(C)(C)C)C(=O)N1CCC(C(=O)O)CC1,0,0.81
C/C(=N\Nc1ccc([N+](=O)[O-])cc1[N+](=O)[O-])c1cccnc1,-0.56,1
O=C1CC(C(=O)Nc2ccc(Cl)cc2[N+](=O)[O-])C2(CCCCC2)O1 (configuration not stated),0.33,1.6
CCOC(=O)Cc1csc(NC(=O)C(C)(C)C)n1,1.4,0.76
O=c1[nH]c(CSc2ccccn2)nc2ccccc12,0.59,1.3
Cc1cccc(Nc2ncnc3onc(-c4ccc(F)cc4)c23)c1C,-0.33,0.02
O=[N+]([O-])c1cccnc1Sc1ccc(F)cc1,0.78,1.1
Cc1nc(N2CCC(C)CC2)c2c(C)c(C(=O)O)sc2n1,-0.7,1
CCOC(=O)c1c(NC(=O)C2C3C=CC(C3)C2C(=O)O)sc2c1CCCC2 (configuration not stated),0.97,2.6
COc1ccc(N=C2NC(=O)C(CC(=O)NCCc3ccc(OC)c(OC)c3)S2)cc1 (configuration not stated),-0.81,0.99
CN(C(=O)CSc1nc(N)c2c3c(sc2n1)CSC(C)(C)C3)c1ccccc1,-0.6,0.41
COc1ccc(-n2c(C)nnc2SCC(=O)Nc2ccccc2F)cc1,-0.51,0.44
COc1ccc2c(ccc[n+]2CC(=O)c2ccc(C)cc2)c1,-0.27,0.51
COc1ccccc1C(=O)C1CCCN(Cc2ccc3c(c2)OCCO3)C1 (configuration not stated),-0.22,1.4
CC(=O)N/N=C(/c1ccccc1)C(O)c1ccccc1 (configuration not stated),0.97,0.08
O=C(NC1CCCCC1)c1ccc(S(=O)(=O)c2ccccc2)cc1,1.2,0.05
CC(NC(=O)c1cc(COc2cccc(C(F)(F)F)c2)on1)c1nccs1 (configuration not stated),-0.22,0.71

Complete entries, looked up by structure. Order of values: KCNQ2 enhance baseline	KCNQ2 enhance
Entry for COc1ccc(-n2c(C)nnc2SCC(=O)Nc2ccccc2F)cc1 : -0.51	0.44
Entry for CN(C(=O)CSc1nc(N)c2c3c(sc2n1)CSC(C)(C)C3)c1ccccc1 : -0.6	0.41

(further entries)
molecule,KCNQ2 enhance baseline,KCNQ2 enhance
CC(=O)N[C@H]1C(O)O[C@H](CO)[C@@H](O)[C@@H]1O (some centres not stated),0.55,1.1
CCCc1cc(=O)n2[nH]c(C)cc2n1,-0.81,1.9
Cc1ccc(CCNC(=O)C2CCCN(S(=O)(=O)c3c(C)noc3C)C2)cc1 (configuration not stated),-0.26,1.4
Cc1nc(S(=O)(=O)c2cccc(Cl)c2)nc2c1CCC2,0.03,0.15
O=C(CCC1COc2ccccc2O1)NC1CCCCC1 (configuration not stated),-0.94,0.83
COc1ccc(CNCc2ccc3ccccc3c2)c(OC)c1,0.71,4.5
O=C(CSc1cn(CCNC(=O)c2cccs2)c2ccccc12)NCC1CCCO1 (configuration not stated),0.22,0.02
CCSCc1nnc(SCC(=O)Nc2nc(C)cs2)n1C,1.4,0.19
O=C(OCC(=O)N1CCCC1)c1cc(Cl)ccc1Cl,-1.2,0.94
CCOC(=O)c1c(S(=O)(=O)Nc2ccccn2)c(C)n(C)c1C,0.22,0.06
Cc1cc(C)cc(NC(=O)C2C3C=CC4(O3)C2C(=O)N(CCCN(C)C)C4C(=O)NC2CCCC(C)C2C)c1 (configuration not stated),-1.1,0.19
COc1ccc(C2CC(=O)c3cnc(NC(=O)c4cc(OC)cc(OC)c4)nc3C2)cc1 (configuration not stated),-2.4,0.43

Single entries from the list:
CCN(C1CCCCC1)S(=O)(=O)CCNC(=O)c1ccccc1 in KCNQ2 enhance: 0.2
O=C(NC(=S)Nc1cc([N+](=O)[O-])ccc1Cl)c1ccccc1 in KCNQ2 enhance: 1.6

The list goes on.
molecule,KCNQ2 enhance baseline,KCNQ2 enhance
O=C(c1cc(=O)[nH]c2ccccc12)N1CCN(c2cccc(C(F)(F)F)c2)CC1,-0.67,0.91
Nc1nnn(CC(=O)N/N=C/C=C/c2ccccc2)n1,-1.7,0.74
COc1cc(C(=O)OCCN2CCOCC2)ccc1O,-0.02,0.43
OC1(c2cccc(C(F)(F)F)c2)CCN(Cc2nnnn2Cc2ccccc2)CC1,0.29,0.14
CCOc1ccc2c(c1)nc(C)n2C,-1.1,1.3
CCc1ccccc1NC(=O)CCCN1C(=O)c2cccnc2C1=O,1,0.41
CCC(=O)Nc1ccc(Br)cn1,0.72,0.07

Some of the compounds tested; count on the stated rates, not on these rows.
